Mtb betalactam: beta-lactam sensitization of Mtb H37Rv | M. tuberculosis H37Rv growth with meropenem, percent inhibition; hits of this screen are not shown here | inhibition, % at 25 µM | 0.27% of 330,000 active;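 active means about 74% or more and at least 40 points above the plate without the antibiotic, then above 30% in a dose series; inconclusive means first-round hits that could not be retested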;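 further: growth measured after seven days incubation then overnight dye step; 0% = bacteria only wells and 100% = bacteria with antibiotic; twin plates without the antibiotic show which effects depend on it; some results filed as inactive read as strong as hits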
Arbovirus inh: antivirals against arbovirus infection; arbovirus infection cell-based antiviral screen; inhibition, % at 10 µM; 0.37% of 200,000 active; AID 1251;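 active means inhibition from about 30%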;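 further: bluetongue infection of BSR cells; cell survival read as ATP light after 72 h; 0% = infected wells without compound and 100% = uninfected wells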
YopH PTP inh: YopH (Yersinia) phosphatase inhibition; inhibition, %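 (about 10 µM by stock and volumes)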; fluorescence Ex485/Em525; 0.16% of 140,000 active; AID 898;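 active means inhibition of 50% or more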;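 further: controls were vehicle for no effect and minimum signal wells for full effect; inactives centre near -20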
RecA intein inh: blocks M. tuberculosis RecA intein splicing; cell-free RecA intein splicing, fluorescence; 0.75% of 290,000 active; P9WHJ3; inhibition, %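 (about 9 µM by stock and volumes)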; in the data active means inhibition above about 30%; inconclusive means no clear call, values can overlap the other calls;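 further: 0% = vehicle wells and 100% = reference inhibitor control wells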
Target sequence (P9WHJ3 whole entry, looked up): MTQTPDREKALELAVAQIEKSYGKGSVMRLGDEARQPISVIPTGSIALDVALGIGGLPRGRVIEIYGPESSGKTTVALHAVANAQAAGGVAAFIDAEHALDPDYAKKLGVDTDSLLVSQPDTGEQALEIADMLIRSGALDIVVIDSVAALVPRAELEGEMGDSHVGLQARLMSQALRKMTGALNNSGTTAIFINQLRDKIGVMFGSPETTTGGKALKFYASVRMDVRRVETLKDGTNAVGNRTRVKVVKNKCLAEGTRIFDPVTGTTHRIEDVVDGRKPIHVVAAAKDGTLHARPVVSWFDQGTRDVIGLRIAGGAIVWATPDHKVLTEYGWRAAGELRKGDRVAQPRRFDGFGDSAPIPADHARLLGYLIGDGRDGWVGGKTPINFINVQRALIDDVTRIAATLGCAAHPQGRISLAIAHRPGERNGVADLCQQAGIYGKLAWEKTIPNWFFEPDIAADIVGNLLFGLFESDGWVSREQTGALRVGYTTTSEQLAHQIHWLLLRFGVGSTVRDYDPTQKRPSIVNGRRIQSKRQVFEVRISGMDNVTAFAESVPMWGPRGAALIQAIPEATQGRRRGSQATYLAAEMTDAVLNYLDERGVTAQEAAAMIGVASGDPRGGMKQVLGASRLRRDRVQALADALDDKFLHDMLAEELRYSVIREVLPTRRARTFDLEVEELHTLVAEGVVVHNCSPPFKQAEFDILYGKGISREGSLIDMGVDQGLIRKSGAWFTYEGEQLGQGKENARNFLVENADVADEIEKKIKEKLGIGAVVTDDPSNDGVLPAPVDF
Mtb H37Rv: M. tuberculosis H37Rv growth inhibitors, H37Rv strain (AID 1626). 0.95% of 220,000 active. inhibition, % at 10 µM, or IC50 in µM where a hit was titrated. M. tuberculosis H37Rv growth inhibition; higher % means a stronger effect;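 active means confirmed in a dose series; inconclusive means inhibition above 80% but not taken into the dose series; inactive means below 80% or under 30% at every dose of the series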;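 further: bacteria incubated seven days before Alamar blue readout; 0% = bacteria only wells and 100% = bacteria with antibiotic wells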
Arbovirus inh repeat: also measured in Arbovirus inh; calls as there; inhibition, %; measured here: 10K subset replicate screen; many hits read low in the repeat;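 first of two repeat runs on a subset; 0% = infected and 100% = uninfected wells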
* = called active by the depositor; u = inconclusive; x = no result given.

SMILES | Mtb betalactam | Arbovirus inh | YopH PTP inh | RecA intein inh | Mtb H37Rv | others
Cc1cc(Cl)nc(Cl)c1C(=O)NC(=O)NCCC(C)C | 5 | 0 | x | x | 2%
Cc1cc(C(=O)Nc2ccc(S(=O)(=O)N3CCCC3)cc2)cs1 | -5 | 6 | -4 | -1.2 | 11%
CCCNC(=O)N[C@@H](CCSC)C(=O)OC | u | -10 | -8 | 1.7 | -4%
Cc1ccccc1N(CC(=O)NC1CCCC1)C(=O)C1(C)CC(=O)N=C2C=CC=CN21 (centres undefined) | -8 | -3 | 35 | 1.9 | -5%
CCCSCCCNC(=O)CN1C(=O)COc2ccc(S(=O)(=O)N3CCCC3)cc21 | -3 | x | x | 2.3 | x
CC(C)(C)NC(=O)COC(=O)c1cncc(Br)c1 | 0 | -2 | 2 | 0.4 | -5%
COc1ccc(N(CC(=O)Nc2ccc(Cc3ccncc3)cc2)S(=O)(=O)c2ccccc2)cc1 | 2 | x | x | 3.8 | x
O=C(O)CC(C(=O)Nc1ccc(F)cc1)C1CCCO1 (centres undefined) | -9 | x | x | 9.0 | -2%
CCOc1ccc(-n2c(SCC(=O)Nc3ccc(CC)cc3)nc3n[nH]c(C)c3c2=N)cc1 | -5 | 15 | x | -1.9 | 2%
COCCCNC(=O)c1c(N)n(/N=C/c2ccccn2)c2nc3ccccc3nc12 | x | -1 | -31 | 0.7 | x
CCC(C)NC(=O)c1cnc2n(c1=O)CCS2 (centres undefined) | -6 | 3 | -26 | x | -5% | Arbovirus inh repeat=3
O=C(NNS(=O)(=O)c1ccccc1)C(O)(c1ccccc1)c1ccccc1 | -10 | -3 | -22 | -0.8 | 10%
O=C(O)CSc1ncccc1C(=O)O | 3 | 4 | -22 | 0.4 | 3%
NC(=O)c1nn(-c2ccccc2)nc1NC(=O)Cn1nnc(-c2ccccc2)n1 | 5 | 3 | -10 | 0.9 | 9%
Cc1nc2ccc(S(=O)(=O)NCC(=O)N3CCc4ccccc4C3)cc2s1 | -3 | 2 | -11 | 0.5 | 2%
CCCCNC(=O)c1cc(-c2ccc(F)cc2)on1 | 34 | -6 | -25 | -8.2 | 4%
CN(C)CCCNc1nc(-c2ccccc2)nc2ccccc12 | 1 | x | x | 0.4 | 2%
O=C(Nc1n[nH]c(C(F)(F)F)n1)c1cccs1 | 0 | x | x | 52* | x
c1ccc(C2=Nn3c(Cn4nnc5ccccc54)nnc3SC2)cc1 | 11 | x | x | 1.6 | -5%
CN(C)C(CNC(=S)Nc1ccc(F)cc1)c1cccnc1 (centres undefined) | -4 | 6 | x | -1.0 | -9%
Cc1ccc(SCc2[nH]nc3c2C2(C(=O)Nc4ccc([N+](=O)[O-])cc42)C(C#N)=C(N)O3)cc1 (centres undefined) | 22 | 2 | -24 | 12 | -2%
C#CCn1c(=NC(=O)CSC(C)=O)sc2cc(F)ccc21 | 1 | -4 | x | 2.9 | 1%
CCn1c(CSCc2ccccc2)n[nH]c1=S | -4 | 1 | x | 4.0 | 4%
CN1CCN(C(=O)c2cc3nc(-c4ccccc4)cc(C(F)(F)F)n3n2)CC1 | -7 | 6 | -23 | -20 | 4%
O=C(COc1ccc(Br)cc1)Nc1ccccc1C(=O)NC1CC1 | 5 | x | x | -0.8 | x
CC1Cc2ccccc2N1C(=O)CN1C(=O)COc2ccccc21 (centres undefined) | -9 | 13 | 22 | 3.1 | -6%
CC(C)CCN1C(=O)c2ccc(C(=O)N3CCCCC3)cc2C1=O | 41 | x | x | -6.4 | x
CCc1ccc(-c2cc(C)no2)cc1S(=O)(=O)NCCc1ccc(S(N)(=O)=O)cc1 | -3 | x | x | -4.8 | x
O=C(CSc1ccc(Cl)cc1)NCC1CCCO1 (centres undefined) | -2 | -3 | 0 | 0.9 | 7%
CCCC(=O)Nc1nc(-c2ccc(OC)cc2)cs1 | 14 | 4 | 2 | 0.2 | 3%
Cc1cccn2cc(CNC(=O)c3ccc(Br)o3)nc12 | 1 | 0 | x | -3.2 | -9%
CCN(CC)S(=O)(=O)c1cccc(NC(=O)COC(=O)C2CC3C=CC2C3)c1 (centres undefined) | -1 | 8 | x | 5.7 | 8%
COc1ccc2nccnc2c1[N+](=O)[O-] | -3 | x | x | -5.3 | -6%
COC(=O)c1ccc(COC(=O)C(CCS(C)(=O)=O)N2C(=O)c3ccccc3C2=O)cc1 (centres undefined) | 1 | 6 | -20 | -3.3 | -9%
CN1CC(C(=O)c2ccc(Cl)cc2)C(c2ccccc2F)C1 (centres undefined) | -1 | -3 | x | 0.0 | 0%
Cc1nc2cc(N)ccc2n1C1CCCCC1 | 8 | 2 | x | 2.3 | -12%
CCN(CC)S(=O)(=O)c1ccc(C(=O)Nc2cc(C)on2)cc1 | 6 | x | x | -2.7 | x
CCOC(=O)c1cc(NC(=O)COC)ccc1O | -10 | 6 | x | -0.4 | 0%
O=C(COc1ccc(Cl)cc1)N(Cc1ccco1)C1CCS(=O)(=O)C1 (centres undefined) | 1 | x | x | -1.0 | -1%
CCN1CCN(C(=O)CN2C(=O)COc3ccc(C)cc32)CC1 | 4 | x | x | -3.7 | x
CCCN1C(=S)SC(C)(C)C1/[N+]([O-])=C/c1ccc(S(=O)(=O)NC)cc1 (centres undefined) | -7 | x | x | -1.8 | 6%
COc1ccc(C(=O)NCCSCc2ccc(Cl)cc2)cc1OC | 3 | x | x | 3.1 | x
O=C(Nc1ccccc1)c1cccnc1Nc1ccccc1 | 8 | -5 | 7 | x | 3%
Cc1ccc(NC(=O)c2cncc(Br)c2)nc1 | 2 | x | x | 1.9 | x
COc1ccccc1C(=O)NC(=O)COC(=O)c1ccc(Cl)cc1[N+](=O)[O-] | 0 | x | x | 9.3 | x
Cc1ccc(OCC(=O)NNC(=O)Nc2ccc(Cl)cc2)c(Br)c1 | 14 | x | x | -0.8 | x
COc1ccc2oc(C(=O)OCC(=O)N3CCN(C(C)=O)CC3)c(C)c2c1 | 2 | x | x | -3.0 | x
O=S(=O)(Nc1cccc(-n2cnnn2)c1)c1ccccc1C(F)(F)F | -3 | x | x | 0.5 | x
CC1CC(C)CN(C(=O)Cn2nnc(-c3ccc(Br)cc3)n2)C1 (centres undefined) | 0 | x | x | 1.7 | x
Cn1nnc(NC(=O)c2cccs2)n1 | -8 | 12 | x | -2.8 | -2%
Cc1cccc(C)c1NC(=O)CN1CCNCC1 | 1 | -4 | -13 | -3.5 | -4%
CCOc1ccc(/C=C(\C#N)C(=O)NCC2CCCO2)cc1OCC (centres undefined) | 6 | -4 | -15 | 0.0 | -4%
CCOC(=O)c1c(C)nn(-c2ccc(NC(=O)CSCC(=O)O)cc2)c1C | 3 | x | x | 1.2 | -6%
CCN1CCN(c2ccc(S(=O)(=O)N3CCOCC3)cc2NC(=O)COc2ccc(F)cc2Cl)CC1 | 4 | x | x | -1.2 | x
O=C(OC(C(=O)NCc1ccc2c(c1)OCO2)c1ccccc1F)c1ccco1 (centres undefined) | 1 | -3 | -3 | 0.0 | -1%
O=C(CN1CCC(NC(=O)Nc2ccccc2)CC1)Nc1ccc([N+](=O)[O-])cc1 | 0 | x | x | -2.1 | x
CCOc1ccc(NS(=O)(=O)c2ccc3[nH]c(=O)oc3c2)cc1 | -1 | 9 | -69 | 1.4 | 1% | Arbovirus inh repeat=5
CC(C)[C@H](Nc1ccc(C(F)(F)F)cc1[N+](=O)[O-])C(=O)O | -10 | x | x | 1.5 | -1%
CC(=O)c1ccc(NC(=O)CCc2c(C)nc3ncnn3c2C)cc1 | x | 3 | -34 | -1.1 | 0%
Cc1cccc(OCC(=O)O/N=C(\N)Cc2ccc(Cl)cc2)c1 | -3 | 0 | -5 | 15 | 9%
New compounds follow
SMILES | Mtb betalactam | Arbovirus inh | YopH PTP inh | RecA intein inh | Mtb H37Rv | others
Cc1noc(C)c1C(=O)OCC(=O)/C=C1\N(C)c2ccccc2C1(C)C | 2 | -2 | -25 | -1.8 | -3%
COc1ccc(N2CCOCC2)c(NC(=O)c2ccco2)c1 | -4 | x | x | 0.2 | x
O=C(Nc1ccnn1C1CCN(C(=O)c2ccc(Cl)c(F)c2)CC1)C1CCOC1 (centres undefined) | -1 | x | x | -2.2 | x
O=C(N/N=C/c1cc(Br)c(Br)o1)c1cccnc1 | -3 | -16 | 2 | 2.2 | -4%
Cc1cccc(/C=C/C(=O)c2ccc(N3CCOCC3)cc2)c1 | 4 | 17 | 1 | 2.9 | 9%
Cc1ccc(N2CN(Cc3ccco3)CNC2=S)c(C)c1 | 4 | 7 | -17 | -1.6 | 0%
Cc1cc(C(=O)N/N=C/c2ccc[nH]2)n[nH]1 | 3 | 6 | -7 | x | 0%
Cc1ccc(S(=O)(=O)n2nc(OC(=O)c3ccccc3C)cc2N)cc1 | 2 | x | x | 19 | x
COc1ccc(/C=c2\s/c(=C/C(=O)c3ccc(C)cc3)[nH]c2=O)c(OC)c1 | 64 | -22 | -33 | -3.4 | u
COc1ccc2[nH]c3c(=O)n(CCCC(=O)NC4CCCCC4C)c(=S)[nH]c3c2c1 (centres undefined) | -1 | x | x | 3.1 | x
COc1ccc(-c2ccc(SCC(=O)c3cccs3)nn2)cc1OC | 5 | -24 | x | -2.7 | -2%
Cn1cc(CNC(=O)C2CCC(=O)N(Cc3cccc(C(F)(F)F)c3)C2)cn1 (centres undefined) | -1 | x | x | -0.9 | x
O=C(NC1CCCC1)C1CCC(CNS(=O)(=O)c2ccc(F)cc2)CC1 (centres undefined) | -4 | x | x | -1.0 | x
CC1(C)C=C(c2ccc(C=O)s2)CC(C)(C)N1 | -13 | -7 | -31 | -0.8 | -2%
Cc1nc2c(sc(=S)n2Cc2ccco2)c(=O)n1CC(=O)Nc1ccccc1 | 54 | x | x | 2.3 | x
CC(=C/c1ccccc1)/C=N/n1c(-c2ccncc2)n[nH]c1=S | 2 | 27 | x | 0.0 | 0%
C=CCNC(=O)COc1c(C)ccc(C)c1C | 2 | 0 | x | -3.6 | 4%
Clc1c(-c2nnc3n2CCCCC3)sc2ccccc12 | 19 | -1 | -48 | 0.5 | 12%
COC(=O)N/N=C/c1cc(N=Nc2ccccc2Cl)ccc1O | 92 | x | x | -1.0 | 79%
N#Cc1c(Cc2cccc3ccccc23)nn(CCO)c1N | -3 | x | x | 2.0 | -2%
Cc1c(Cl)cccc1NC(=O)NCc1ccc(F)cc1 | 2 | -6 | x | -5.0 | -7%
CCC(C)(C)c1nnc(NC(=O)c2cccc([N+](=O)[O-])c2)s1 | 38 | 21 | 20 | -2.5 | 31%
COc1ccc(NC(=O)C2CCC(CNc3c(N4CCOCC4)c(=O)c3=O)CC2)cc1Cl (centres undefined) | -4 | x | x | -0.3 | -1%
Cc1cc(OCC(=O)OCC(=O)NCc2ccco2)ccc1Cl | 10 | x | x | 0.0 | x

Arranged by length of the SMILES (highest first): some entries from above.
SMILES | Mtb betalactam | Arbovirus inh | YopH PTP inh | RecA intein inh | Mtb H37Rv | others
O=C(NC1CCCC1)C1CCC(CNS(=O)(=O)c2ccc(F)cc2)CC1 (centres undefined) | -4 | x | x | -1.0 | x
Cc1cc(OCC(=O)OCC(=O)NCc2ccco2)ccc1Cl | 10 | x | x | 0.0 | x
Clc1c(-c2nnc3n2CCCCC3)sc2ccccc12 | 19 | -1 | -48 | 0.5 | 12%

A portion from further up, as a working copy:
SMILES | Mtb betalactam | Arbovirus inh | YopH PTP inh | RecA intein inh | Mtb H37Rv | others
COc1ccc(/C=c2\s/c(=C/C(=O)c3ccc(C)cc3)[nH]c2=O)c(OC)c1 | 64 | -22 | -33 | -3.4 | u
COc1ccc2[nH]c3c(=O)n(CCCC(=O)NC4CCCCC4C)c(=S)[nH]c3c2c1 (centres undefined) | -1 | x | x | 3.1 | x

Further entries follow.
SMILES | Mtb betalactam | Arbovirus inh | YopH PTP inh | RecA intein inh | Mtb H37Rv | others
CCCCn1c(N)c(N(CC(C)C)C(=O)Cn2c(=O)oc3ccccc32)c(=O)[nH]c1=O | -3 | x | x | -1.5 | x
CC(C)OCCCNC(=O)Cn1nc(-c2ccccc2)ccc1=O | 3 | 2 | -20 | 4.1 | 3%
O=C(c1ccc(Cn2c(=S)[nH]c3ccccc3c2=O)cc1)N1CCN(c2ccccn2)CC1 | 13 | 6 | x | 12 | 50%
COc1ccc([N+](=O)[O-])cc1NC(=O)Cc1c(Cl)cccc1Cl | 4 | -14 | -37 | 2.6 | 5%
Cc1cc(C(F)(F)F)nn1CC(=O)Nc1cccnc1 | 4 | 8 | -48 | 2.2 | x

By substructure, the entries above with a COOH group (4)
SMILES | Mtb betalactam | Arbovirus inh | YopH PTP inh | RecA intein inh | Mtb H37Rv | others
O=C(O)CC(C(=O)Nc1ccc(F)cc1)C1CCCO1 (centres undefined) | -9 | x | x | 9.0 | -2%
O=C(O)CSc1ncccc1C(=O)O | 3 | 4 | -22 | 0.4 | 3%
CCOC(=O)c1c(C)nn(-c2ccc(NC(=O)CSCC(=O)O)cc2)c1C | 3 | x | x | 1.2 | -6%
CC(C)[C@H](Nc1ccc(C(F)(F)F)cc1[N+](=O)[O-])C(=O)O | -10 | x | x | 1.5 | -1%

High-throughput results deposited in PubChem by several laboratories.

The list is partial; the hit share may differ from the screen's.
